CapD inh: blocks the Bacillus anthracis CapD enzyme; purified CapD enzyme, fluorescence intensity read-out; active compounds read low; some hits fall short of the stated cut; z-score (test concentration not listed); 0.23% of 140,000 active;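 active = z-score under -4 in either of two replicates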;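 note: stock transfer was 100 nL into about 40 µL; score is relative to mean and spread of the plate; one replicate is shown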
AID504770: E. coli YBA685 growth inhibition, screen for V. cholerae RctB inhibitors; E. coli YBA685 rctB-dependent plasmid, OD600 growth, 3 h; active compounds read low; z-score (no concentration beside the values); 0.27% of 130,000 active;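 active = z-score under -2 on both plates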;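 note: wells of about 30 µL received 100 nL stock; score is relative to mean and SD of the test wells; the first replicate is given; strong numbers were not always called active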
The depositor's hits bear a star; nt = not tested or not shown. This is a subset, so the mix of outcomes need not match the whole.

compound	CapD inh	AID504770
CC(C(=O)N1CCCC1)N1CCN(S(=O)(=O)c2ccc3ccccc3c2)CC1 (centres undefined)	nt	0.1
Cn1c(=O)c2c(ncn2CC(=O)N2CCSC2=NCCc2ccccc2)n(C)c1=O	nt	0.85
Cc1ccc(NC(=O)c2cc(-c3ccc4c(c3)OCO4)on2)cc1C	2.82	1.1
S=C(NCC1CC1)Nc1ccc(Cl)cc1	0.335	-0.95
CCN(CC(=O)NCc1cccs1)C(=O)Cc1c(C)noc1C	nt	0.5
O=C(N/N=C1/CCc2ccccc21)C1CC1	nt	-0.95
CSc1nnc(NC(=O)/C=C\c2ccc3c(c2)OCO3)s1	-0.08	-0.55
Cc1cc(C)nc(Sc2ccc(S(=O)(=O)C(F)F)cc2S(=O)(=O)C(F)F)n1	nt	-0.9
Cc1cc(C)cc(N=C2NC(=O)/C(=C\c3cc([N+](=O)[O-])cc([N+](=O)[O-])c3O)S2)c1	-0.395	nt
O=C(C1CC(c2ccccc2O)=NO1)N1CCCC1 (centres undefined)	nt	-1.8
CCS(=O)(=O)N1CCC(C(=O)NCc2ccc(F)cc2Cl)CC1	0.335	-0.15
COc1cccc(C(C(F)(F)F)P(C)(=O)O)c1 (centres undefined)	0.075	-0.2

Two entries picked at random from the list so far:
compound	CapD inh	AID504770
COc1cccc(C(C(F)(F)F)P(C)(=O)O)c1 (centres undefined)	0.075	-0.2
CSc1nnc(NC(=O)/C=C\c2ccc3c(c2)OCO3)s1	-0.08	-0.55

(further entries)
compound	CapD inh	AID504770
Cc1ccc(S(=O)(=O)N2CCN3CN(S(=O)(=O)c4ccc(C)cc4)CC([N+](=O)[O-])(C3)C2)cc1 (centres undefined)	-0.315	nt
COC(=O)c1ccc(Nc2nc(=O)c3cccnc3s2)cc1	-0.21	0
CN(CC(=O)Nc1ccc2c(c1)CCC2)C1CCS(=O)(=O)C1 (centres undefined)	nt	0.4
CC1CCCCN1C(=O)CSc1nc(-c2ccc(F)cc2)cc(C(F)(F)F)n1 (centres undefined)	15.3	-0.85
CCc1ccc2nc(N3CCC(C(=O)NC(C)C)CC3)sc2c1	0.76	0.1
O=C(O)c1cccc(-c2ccc(/C=c3/sc4nc5ccccc5n4c3=O)o2)c1	0.495	0.5
COc1ccc(S(=O)(=O)Nc2ccc3[nH]c(C)cc3c2)cc1	-0.135	nt
CC(C)(C)c1ccc(C(=O)Nc2ccc(NC(=O)c3ccc(Br)o3)cc2)cc1	1.51	0
COc1cc(O)c(/C=N/NC(=O)/C=C/c2ccco2)c(OC)c1	-3.23	nt
O=C(Cc1ccccc1)N1CCCCCC1	-0.19	2.05
CCCn1c(=O)ccn(-c2ccccc2C)c1=O	1.44	-0.05
N#C/C(=C\c1c(Cl)cccc1Cl)S(=O)(=O)c1cccs1	-1.02	nt
CCN(C1=NC2CS(=O)(=O)CC2S1)c1ccc(OC)cc1 (centres undefined)	9.01	1.25
CCOC(=O)N1CCN(S(=O)(=O)c2cc3[nH]c4c(c3cc2CC)C(=O)CC(C)(C)C4)CC1	-0.41	0.55
Cn1cnc2cc(NCc3cccs3)ccc21	17.6	-0.65
Cc1cccc(N2C(=O)NC(=O)/C(=C\c3cn(CC(=O)NCc4ccco4)c4ccccc34)C2=O)c1	nt	-0.55
Nc1nnc(SCc2cccc(S(=O)(=O)N3CCOCC3)c2)s1	nt	-0.35
O=C(O)CCCC(=O)Nc1ccc2c(c1)C(=O)OC2	-1.43	-0.45
Cc1cc2ccccc2n1CCNC(=O)Cc1ccccc1	-0.565	0.05
O=C1ON=C(c2ccccc2)/C1=C/c1ccco1	-0.755	-1.45
COc1ccc(-n2c(SCC(N)=O)nc3c(c2=O)SCC3)cc1	-1.01	0.15
Cc1ccc(CSC2=NS(=O)(=O)c3ccccc32)cc1	-0.38	-0.55
COc1ccc(/C=N/Nc2nc(-c3ccc(OC)cc3)c(C)s2)cc1	0.475	1.7
CS(=O)(=O)N1CCc2cc(C(=O)Cn3cc(C(F)(F)F)ccc3=O)ccc21	nt	-1.1
OC1CCC(NCC(O)COCc2ccccc2Cl)CC1 (centres undefined)	nt	-0.25
CCN(C(=O)CSc1nc2ccccc2o1)C1=CCCC1	nt	-1.1
O=S(=O)(CCc1nc2ccccc2s1)c1ccc(Cl)cc1	nt	1.6
CN1C(N)=NC(=O)C1(CO)CO	nt	-0.1
Cn1c(C(=O)NNC(=O)c2ccc(-c3ccccc3)cc2)cc2ccccc21	1.52	nt
CCCCNCc1cccn1-c1sc2c(c1C#N)CCCC2	nt	-0.4
COc1ccccc1N1CCN(C(CNS(=O)(=O)c2c(C)cc(C)cc2C)c2cccnc2)CC1 (centres undefined)	nt	-0.6
Cc1ccc2cc(CN(CC3CCCO3)C(=O)C(F)(F)F)c3nnnn3c2c1C (centres undefined)	nt	-0.05
C=CCOc1ccc(/C=C2\C(=O)NC(=S)N(c3ccc(OC)cc3)C2=O)cc1OC	-0.59	nt
Cn1ncc(C#N)c1-n1cccc1	0.105	0.15
O=c1cc(-c2ccccc2)c2c(=O)n(-c3ccccc3)[nH]c2[nH]1	-2.62	-0.25
Cc1cc(N)n(-c2ccc(F)cc2)n1	0.24	-0.85
N#Cc1nc(-c2ccccc2F)oc1N1CCc2ccccc2C1	51.9	1.2
Cc1cc(=O)[nH]c2nnc(SCC(=O)N3CC(C)OC(C)C3)n12 (centres undefined)	nt	-0.35
N#CC(C#N)=C1C=C(c2cccs2)Oc2ccccc21	nt	0
S=C(NCCNc1ccccn1)NC1CC1	nt	0.15
O=C(Cn1[nH]c(=O)c2ccccc2c1=O)NCCN1C(=O)S/C(=C\c2ccccc2)C1=O	nt	-0.1
Cc1ccccc1C1C(C#N)=C(N)SC(N)=C1C#N	4.89	-0.85
COc1cc2c(cc1OC)C(CC#N)=NC(C)(C)C2	12.2	nt
Cc1ccc(N(CC(=O)N2CCOCC2)S(=O)(=O)c2ccccc2)cc1	-0.49	-0.9
C(=C\c1cccs1)/C1=NN(c2ccccc2)C(c2cccs2)C1 (centres undefined)	5.63	1.2
Clc1ccccc1NC1=NCCCS1	nt	1.05
O=C1/C(=C/c2cccs2)CN(Cc2ccccc2)C/C1=C\c1cccs1	-0.455	-0.95
COc1ccc(C(=O)c2ccc(OC)cc2OC)cc1	-0.51	nt
COc1ccc(CCNC(=O)c2c[nH]c3ccc(S(=O)(=O)N4CC(C)CC(C)C4)cc3c2=O)cc1OC (centres undefined)	-0.395	nt
O=C(COc1ccc(Br)cc1)OCC(=O)c1ccccc1	-0.425	-0.55
CC(O)CNCCOc1ccc2ccccc2c1Cl (centres undefined)	1.4	0.5
Cc1nn2c3ccccc3n(CC(=O)c3ccc(Br)cc3)c2nc1=O	0.91	nt
CC1(C)OC2OC(C(=O)NC(CCC(=O)OCc3ccccc3)C(=O)OCc3ccccc3)C3OC(C)(C)OC3C2O1 (centres undefined)	0.82	nt
CCN(CC)Cn1c(=S)oc2ccc(Cl)cc21	nt	-0.4
CCOc1ccc(NC(=O)CSc2nc3n[nH]c(C)c3c(=N)n2-c2cccc(Cl)c2C)cc1	3.08	nt
Cc1noc(C)c1COc1cc2ccccc2cc1C(=O)NCc1ccccn1	nt	-0.1
COc1ccc(C(=O)OCc2cn(-c3ccc(Cl)c(Cl)c3)nn2)cc1	-0.495	nt
CC1(C)CC(=O)c2c(Cc3ccccc3)n[nH]c2C1	-0.51	-0.8
CCNC(=O)n1cc(-c2ccnc3ccccc23)c(-c2ccccn2)n1	0.195	nt
CCOC(=O)N1CCN(C(c2ccncc2)c2c(C)[nH]c3ccccc23)CC1 (centres undefined)	-0.32	1.55

A stretch taken from the entries so far, for reference:
compound	CapD inh	AID504770
COc1ccc(CCNC(=O)c2c[nH]c3ccc(S(=O)(=O)N4CC(C)CC(C)C4)cc3c2=O)cc1OC (centres undefined)	-0.395	nt
O=C(COc1ccc(Br)cc1)OCC(=O)c1ccccc1	-0.425	-0.55
CC(O)CNCCOc1ccc2ccccc2c1Cl (centres undefined)	1.4	0.5

(continued)
Order of results: CapD inh | AID504770
COC(=O)C1C(=O)C2=C(CC1C)NC(C)=C(C(=O)OC1CCCCC1)C2c1ccc(N(C)C)cc1 (centres undefined)
→ -0.31 | -2.05
C=C(C)CN(CC)C1CCC(CC)CC1 (centres undefined)
→ 0.105 | 0.15
CCCCCCCCOC(=O)c1ccc(-c2ccc(-c3ccc(C(=O)OCCCCCCCC)cc3)cc2)cc1
→ -0.22 | nt
CCn1c(=O)c2sccc2n2c(CCCC(=O)N3CCC(C(N)=O)CC3)nnc12
→ -0.185 | 0.4
Cc1csc(SCc2cccc(S(=O)(=O)N(C)C)c2)n1
→ nt | 0.7
CCOC(=O)C1=C(C)NC2=C(C(=O)C(C(=O)OCC)C(c3cccc(OC)c3)C2)C1c1sccc1C (centres undefined)
→ 1.34 | nt
CC(C)CN1CCC(c2nc(-c3cccc(C(F)(F)F)c3)no2)CC1
→ -0.145 | nt
COc1ccccc1C(=O)CN1CCCCC1C (centres undefined)
→ nt | 0.5
O=C(Nc1ccc2[nH]ccc2c1)c1cccnc1Oc1ccccc1
→ -1.54 | -0.15
CCN(CC(=O)NC1CCS(=O)(=O)C1)CC(=O)c1c(N)n(Cc2ccccc2)c(=O)n(C)c1=O (centres undefined)
→ nt | 0
NC(=S)Cc1c[nH]c2ccccc12
→ nt | -1.15
O=C(COc1ncn(-c2ccccc2)n1)N/N=C/c1ccc(O)c([N+](=O)[O-])c1
→ -3 | nt
NC(=O)c1ccc(NC(=O)c2ccccc2OC(F)F)cc1
→ nt | -0.5
C=CCn1c(-c2ccccc2)nc2ccccc21
→ 0.9 | -0.9
Cc1ccccc1N1CC(O)(c2cccc([N+](=O)[O-])c2)[N+]2=C1SCC2 (centres undefined)
→ 0.49 | nt

Some values from the results shown.
In AID504770, CCCCNCc1cccn1-c1sc2c(c1C#N)CCCC2 has the entry -0.4
In CapD inh, CCc1ccc2nc(N3CCC(C(=O)NC(C)C)CC3)sc2c1 has the entry 0.76

The list goes on.
Order of results: CapD inh | AID504770
COC(=O)CNC(=O)C1c2ccccc2C(=O)N(Cc2ccc(F)cc2)C1c1ccc(OC)cc1 (centres undefined)
→ -0.125 | 0.2
NC(=O)c1sc2nc3c(c(-c4ccc([N+](=O)[O-])cc4)c2c1N)C(=O)c1ccccc1-3
→ -0.58 | nt
Cc1ccc(CNC(=O)CSc2nc3ccccc3o2)cc1
→ -0.345 | 0.3
CCOC(=O)C1CCCN(C(=O)CN2C(=O)c3ccccc3S2(=O)=O)C1 (centres undefined)
→ nt | 2.45
CC1Cc2ccccc2N1C(=O)CSc1nnc(N)s1 (centres undefined)
→ -0.645 | -0.45
On1nnc2ccccc21
→ nt | 0.6
COC(=O)CNC(=O)c1cc2sccc2n1Cc1ccccc1
→ nt | -0.2
O=C(CC(C(=O)O)n1cccn1)c1ccc(Br)cc1 (centres undefined)
→ -0.795 | -0.6
CCOc1ccc(NC(=O)CCc2c(C)nc3c(c(C)nn3C(C)(C)C)c2C)cc1
→ 0.475 | 0.5
Cn1c2c(c(=O)n(C)c1=O)CN(CCCn1ccnc1)CN2
→ 0.75 | nt
CC(C)Nc1nc(NC(C)C)nc(C(=O)OCCO)n1
→ 0.1 | -0.4
CSc1nc2c(Cl)cccc2c2c1c(=O)n(Cc1ccc(Cl)cc1)n2C
→ 0.255 | 0.2
CC(C)CC1CC(C)(C(=O)CSc2n[nH]c(-c3ccccc3)n2)OC1=O (centres undefined)
→ nt | -0.6
COc1ccc(NC(=O)c2cc(S(=O)(=O)N3CCCC3)ccc2F)cc1
→ -0.1 | 1.1
Cc1ccc(-c2nc3ccccc3c(=O)n2CC(=O)Nc2ccc(C)c(F)c2)cc1
→ -0.21 | nt

Molecules shown so far with a COOH group (3):
Order of results: CapD inh | AID504770
O=C(O)c1cccc(-c2ccc(/C=c3/sc4nc5ccccc5n4c3=O)o2)c1
→ 0.495 | 0.5
O=C(O)CCCC(=O)Nc1ccc2c(c1)C(=O)OC2
→ -1.43 | -0.45
O=C(CC(C(=O)O)n1cccn1)c1ccc(Br)cc1 (centres undefined)
→ -0.795 | -0.6

More structures
Order of results: CapD inh | AID504770
Cc1cc(C)c(C#N)c(N2C3CCC2CC(O)(c2ccc(F)cc2)C3)n1 (centres undefined)
→ 73.1 | 0.05
CCc1ccc(N2Cc3ccncc3C2=O)cc1
→ 0.725 | -0.9
FC(F)(F)c1nc(NCc2ccccc2)nc2c1CCCCC2
→ 0.815 | -0.5
COC(=O)c1cc(S(=O)(=O)NCc2ccc(OC)cc2)cn1C
→ -0.3 | 0.15
CSc1nnc2c(n1)OC(c1ccc(OCC(=O)O)cc1)Nc1ccccc1-2 (centres undefined)
→ -0.745 | nt
O=C(CCSc1nnc2scc(-c3ccccc3)n12)NCc1ccc2c(c1)OCO2
→ -1.31 | -0.4
COc1ccc(S(=O)(=O)n2c(SCC(=O)Nc3ccccc3OC)nc3ccccc32)cc1
→ -0.575 | nt
Fc1c(F)c(F)c(C=Nc2ccccc2N2CCOCC2)c(F)c1F
→ 0.09 | 0.7
N#CCn1c(C[S+]=C=N)nc2ccccc2c1=O
→ nt | 0.6
Cc1cccc(Nc2ccc3noc4c3c2C(=O)c2ccccc2-4)c1
→ -0.53 | nt
CC(C)CC(C(=O)Nc1cc(C(F)(F)F)ccc1N1CCOCC1)N1C(=O)C2CC=CCC2C1=O (centres undefined)
→ nt | 0.85
COc1ccc(OCc2nc(C#N)c(N3CCOCC3)o2)cc1
→ -0.075 | -0.6
CCNc1nc(C)nc2sc3c(c12)CCCC3
→ 1.27 | 0.5
CCOC(=O)N1CCN(C(=O)CC(c2ccccc2)c2ccccc2)CC1
→ -0.285 | -0.25
